# From PubChem
# MgrA-DNA mod: S. aureus MgrA activity modulators, primary screen, biochemical, S. aureus Newman, fluorescence polarization. AID 602314, 2012. 84,000 tested, 0.13% active. MgrA-DNA binding. inhibition, %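 (about 10 µg/mL by stock and volumes)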;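 active means above 50% in either of two replicates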;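 further: 0% = protein plus DNA without compound and 100% = DNA alone without protein; higher means less MgrA bound to DNA so lower polarization; one replicate is shown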
# Sa helicase inh: inhibitors of S. aureus replicative helicase, primary screen, biochemical, fluorescence unwinding readout; replicative DNA helicase (DnaC/DnaB), Staphylococcus aureus; 120,000 tested, 0.05% active; purified S. aureus helicase, fluorescence unwinding assay; about half of the hits fall short of the stated cut; inhibition, %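 (tested at about 80 µM)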;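 active means both duplicates at 50% or more, or one of them with a favoured structure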;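 further: 0% = mean of negative control wells and 100% = mean of positive control wells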
# Numbers without * were called inactive; . = no result given. Some of the compounds tested; count on the stated rates, not on these rows.
MgrA-DNA mod,Sa helicase inh,Structure
-0.3,5,Cn1c(=O)c2c(ncn2C/C=C/c2ccccc2)n(C)c1=O
-1.8,13,Cn1cc(C(=O)NCc2cccs2)c(=O)c2cc(S(=O)(=O)N3CCOCC3)ccc21
.,-4,CCOC(=O)/C(=N\Nc1ncnc2ccccc12)c1ccc(OC)cc1
-3.1,.,Cc1cc(Sc2nc(C)cc(C)c2C#N)nc(N)n1
3.9,4,O=C(Nc1ccc2c(c1)CCC2)C1CCN(c2ccc(S(=O)(=O)N3CCCC3)cc2)CC1
.,18,CCCOC(=O)COc1ccc2c3c(c(=O)oc2c1C)CCCC3
1.3,8,CCN(Cc1ccccc1)C(=O)Cn1cc2c(n1)-c1c(oc(C(=O)N3CCCC3)c1C)CC2
.,-12,COc1cc(/C=N/n2cnc3scc(-c4cccs4)c3c2=O)ccc1O
-3.1,-7,Cc1cccc(N2CCN(CC(=O)NCc3cccs3)CC2)c1C
-1.1,10,CCC(C)NC(=O)c1sc2nc(C)nc(N(C)c3ccc(C(C)C)cc3)c2c1C (configuration not stated)
1.5,-10,CCN(CC)c1ccc(-c2nc(NC(C)=O)c3c(=O)oc4ccccc4c3n2)cc1
.,-30,NCCCNC(=O)c1ccc(/C=N\O)nc1
-1.2,2,CCn1c(SCc2ccccc2)nnc1-c1ccncc1
.,-22,NC(=O)C1CCN(C(=O)/C=C2\Sc3ccccc3NC2=O)CC1
0.6,32,COc1cc2cc3c4c(cc(OC)c(OC)c4c2cc1OC)CCN3C
-1.8,-15,CC1=C(C)C(=O)N(c2ccc(C(=O)O)cc2)C1=O
-3.2,.,CC(C)N1C(=O)c2ccccc2N(Cc2ccccc2)S1(=O)=O
0.5,10,COc1ccc2cc(C(=O)N3CCCCCC3)sc(=O)c2c1OC
.,-22,CC(C)N=c1scc(-c2ccc(F)cc2)n1/N=C/c1ccc(O)cc1O
.,5,CCc1ccc(-c2cc(C)no2)cc1S(=O)(=O)N1CCC(c2ccccc2)C1 (configuration not stated)

MgrA-DNA mod,Sa helicase inh,Structure
0.2,.,COC(=O)c1c(COc2ccccc2)n[nH]c1C
.,5,O=C(O)C1CSC(c2cccs2)=N1 (configuration not stated)
1.4,.,c1ccc(-c2csc3ncnc(NC4CC4)c23)cc1
4.5,1,O=C1C2C3C=CC(C3)C2C(=O)N1CCN1C(=O)C2C3C=CC(C3)C2C1=O (configuration not stated)
-1.4,.,CCOC(=O)c1ccc2c(c1)C1C=CCC1C(c1ccccc1F)N2 (configuration not stated)
.,10,Cc1cccc(C(=O)NCc2cn3cccc(C)c3n2)c1
.,-9,C/C(N)=C(/C#N)C(=O)CSc1nnc(SCc2ccc(Cl)cc2)s1
.,10,Cn1nc(-c2ccccc2)c(-c2nc3ccccc3n2C)c1-c1ccccc1
.,30,CC(=O)Oc1ccc2occ(-c3ccccc3)c2c1
.,-9,Cc1cc(C(=O)COC(=O)CSc2ncnc3sccc23)c(C)n1-c1ccc2c(c1)OCO2
.,14,O=C(NCc1ccco1)c1c(-c2ccccc2)c(-c2ccccc2)n[nH]c1=O
.,-4,Cc1cc(C(=O)NCc2cc3ccccc3s2)nn1C
0.8,0,O=C1NC(c2ccccc2)C(c2ccccc2)N1 (configuration not stated)
.,8,COC(=O)c1ccccc1NC(=S)N(C)C
.,8,Cn1c(C(C#N)(Cc2ccccc2)Cc2ccccc2)nc2ccccc21
.,-16,COC(=O)c1sc(-c2ccccc2)cc1NC(C)=O
-3.8,0,CCOc1ccc(OC(=O)c2cccnc2)cc1
-0.2,7,CCc1ccc(C2C3=C(CCCC3=O)OC3=C2C(=O)CCC3)cc1
.,8,COCCNC(=O)c1ccc(N2CC3CC(C2)c2cccc(=O)n2C3)c(NC(=O)c2cc3ccccc3oc2=O)c1 (configuration not stated)
.,-2,O=C(COC(=O)c1ccc2c(=O)n3c(nc2c1)CCCCC3)NC12CC3CC(CC(C3)C1)C2

# Look-ups from the results shown.
# Reading for O=C(O)C1CSC(c2cccs2)=N1 (configuration not stated) under Sa helicase inh: 5
# Reading for Cc1cc(C(=O)NCc2cc3ccccc3s2)nn1C under Sa helicase inh: -4
# Reading for C/C(N)=C(/C#N)C(=O)CSc1nnc(SCc2ccc(Cl)cc2)s1 under Sa helicase inh: -9
# Reading for c1ccc(-c2csc3ncnc(NC4CC4)c23)cc1 under MgrA-DNA mod: 1.4

# New compounds follow:
MgrA-DNA mod,Sa helicase inh,Structure
.,16,O=C1C2CCCC1CC(C(=O)N1CCN(c3ccccc3Cl)CC1)C2 (configuration not stated)
-3.4,-4,CCc1ccc(-n2c(=O)c3c4c(sc3n(CC(=O)N(C)C3CCCCC3)c2=O)CCC4)cc1
3.2,10,Cc1cc(NC(=O)CCS(=O)(=O)c2nc(-c3ccccc3)cc(C(F)(F)F)n2)no1
.,-21,CCN(CC)C(=O)CSc1nc(N)cc(=O)[nH]1
.,-18,COC(=O)c1ccc(NC(=O)CN(C)Cc2cccc(F)c2)cc1
0.5,10,CCC(C)(C(=O)NC1CCCCC1)N(C)C(=O)c1ccccn1 (configuration not stated)
-8.8,8,Cc1cccc(NC(=O)c2ccccc2)n1
0.2,10,Nc1nonc1C(=NCc1ccccc1)NO
.,34,CSc1nsc(SCC(=O)NC2=NC(=O)C(C)S2)n1 (configuration not stated)
1.7,1,O=C(O)CCN(C(=O)C1C2C=CC(C2)C1C(=O)O)c1ccccc1 (configuration not stated)
-2.1,.,COC(=O)C1Cc2c([nH]c3ccccc23)C2(CCN(C)CC2)N1 (configuration not stated)
.,5,O=C(c1ccccc1)c1ncc[nH]1
-0.2,7,CC1(c2ccccc2)OC(=O)C2C3CCCCC3=C3CCCCC3C21 (configuration not stated)
-1.8,.,CC(=O)COc1ccc(Cl)cc1Cl
-0.4,.,Cc1onc(-c2c(Cl)cccc2Cl)c1NC(=O)O/N=C/c1ccc(Cl)c(Cl)c1
-2.9,-9,CC(C(=O)O)N1C(=O)C2CC=CCC2C1=O (configuration not stated)
1.1,5,CCOc1ccc(NC(=O)CCC(=O)n2nc(C)cc2C)cc1
-0.7,.,O=[N+]([O-])c1ccc(Oc2ccc(OCc3ccccc3)cc2)cc1
.,3,COC(=O)NCc1cccc(CNC(=O)OC)c1
0.5,.,Cc1onc(-c2ccccc2Cl)c1C(=O)N1c2ccccc2NC(=O)CC1C (configuration not stated)

MgrA-DNA mod,Sa helicase inh,Structure
.,12,c1csc(CNc2nc3ccccc3n2CCN2CCCCC2)c1
-1.0,-2,O=S(=O)(NS(=O)(=O)c1ccccc1)c1ccccc1
0.2,7,C=CCOC(=O)c1ccc(NC(C)=O)cc1
.,6,NC(=O)COc1ccc(Nc2nnc(-c3ccccc3)c3ccccc23)cc1
0.7,-11,C=CCNCc1ccc(OC)c(OC)c1
.,6,COc1ccc(S(=O)(=O)Nc2nc3ccccc3nc2NCC2CCCO2)cc1 (configuration not stated)
-0.6,9,COc1ccc(C(=O)NCc2nnc(SCC(=O)Nc3cc(C)cc(C)c3)o2)cc1OC
-0.5,-2,O=S(=O)(c1ccc(S(=O)(=O)N(Cc2cccs2)C2CCCCC2)cc1)N1CCCC1
-3.0,-2,Cc1c(Cl)cccc1NC(=O)C(CC(=O)O)C1CCCO1 (configuration not stated)
.,28,CCCCC1(C)OC(=O)C(=Cc2ccc3c(c2)OCO3)C(=O)O1 (configuration not stated)
.,2,O=C(NCc1ccccn1)c1ccc2ccccc2n1
.,-6,CN(CC(=O)Nc1ccc(Cl)cc1)C1CCCCN(C(=O)c2ccc(F)cc2)C1=O (configuration not stated)
.,-16,O=S1(=O)c2cccc3cccc(c23)N1Cc1nnc(-c2ccccc2Br)o1
-1.7,7,CCCc1cc(C(=O)OC)c(NC(=O)C2CCC2)s1
-0.8,-1,Cc1ccc(-c2onc3ccc(Cl)cc23)cc1
.,10,O=C1C2CCCC1C(c1ccccc1)NC2c1ccccc1 (configuration not stated)
-0.4,.,CN(Cc1nnc(-c2ccc3ccccc3c2)o1)c1nnc(C(F)(F)F)s1
.,-3,CN(C)C(=O)COC(=O)c1cccc(C#N)c1
-2.2,-16,c1ccc(-c2ccn(-c3ccccc3)n2)cc1
.,2,COc1ccc(OC)c(/C=N/NC(=O)c2cn(C)c3ccccc23)c1

# Retrieved by compound from the entries so far (7):
MgrA-DNA mod,Sa helicase inh,Structure
.,12,c1csc(CNc2nc3ccccc3n2CCN2CCCCC2)c1
.,6,COc1ccc(S(=O)(=O)Nc2nc3ccccc3nc2NCC2CCCO2)cc1 (configuration not stated)
.,2,COc1ccc(OC)c(/C=N/NC(=O)c2cn(C)c3ccccc23)c1
.,-6,CN(CC(=O)Nc1ccc(Cl)cc1)C1CCCCN(C(=O)c2ccc(F)cc2)C1=O (configuration not stated)
.,6,NC(=O)COc1ccc(Nc2nnc(-c3ccccc3)c3ccccc23)cc1
.,2,O=C(NCc1ccccn1)c1ccc2ccccc2n1
-0.8,-1,Cc1ccc(-c2onc3ccc(Cl)cc23)cc1

# (next part)
MgrA-DNA mod,Sa helicase inh,Structure
.,7,CC(=O)N1CCCc2cc(S(=O)(=O)NC(C(=O)NCc3ccccc3)C(C)C)ccc21 (configuration not stated)
.,7,O=C(COC(=O)C1CCN(c2ccc(C(F)(F)F)cn2)CC1)c1ccccc1
-0.6,.,O=C(O)CC(CC(=O)Nc1ccc2ccccc2n1)c1ccccc1 (configuration not stated)
.,23,Cc1ccc(CN(C)C(=O)COc2ccccc2-c2ccccc2)o1
1.4,8,N#Cc1c(-c2ccc(Cl)cc2)nc2n(c1=O)CCCS2
.,1,CCc1ccc(NC(=O)N2CCSc3ncccc32)cc1
.,14,C=CCN1CC(C(=O)O)CC1=O (configuration not stated)
.,16,CC(=O)NCCCc1nc2ccccc2n1C(C)C
.,30,CC1(C)CC(=O)CC(O)(C(F)(F)F)O1 (configuration not stated)
.,3,CC(=O)N1C(=Nc2ccccc2C)SCC1(C)C
1.5,9,CC(=O)n1c(=O)oc2ccccc21
3.0,7,Cc1ccc(C2=NNC(=O)C(P(=O)(c3ccccc3)c3ccccc3)C2)cc1 (configuration not stated)
-3.2,.,O=C(Cc1ccccc1)N1CCN(c2ccnc3cc(Cl)ccc23)CC1
.,2,COc1ccc(/C=C(\C#N)C(=O)Nc2nccs2)cc1O
.,-19,O=C(NNc1ncccc1C(F)(F)F)c1cccc(C(F)(F)F)c1
.,6,CC1CCc2c(sc3nc4c5ccccc5c(NCCCN(C)C)nn4c(=O)c23)C1 (configuration not stated)
4.6,8,CCOc1ccc2nc(NN)c(C3OCCO3)cc2c1
-1.7,10,CCOC(=O)c1c(CSc2nc3ccccc3[nH]2)n(-c2ccccc2)c2ccc(OC(C)=O)cc12
0.3,15,Cc1ccc2c(c1)nc(NCCO)n2C
.,12,COc1ccc(CSC(=N)N)cc1Br

# Compound profiles, from the list above. Order of screens: MgrA-DNA mod, Sa helicase inh
# `Cc1ccc2c(c1)nc(NCCO)n2C` as listed: 0.3, 15
# `CC1CCc2c(sc3nc4c5ccccc5c(NCCCN(C)C)nn4c(=O)c23)C1` (configuration not stated) as listed: ., 6

# Remaining list, next part
MgrA-DNA mod,Sa helicase inh,Structure
.,35,COc1cc(OC)cc(N2C(=O)Cc3c2nc2c4c(nc(N5CCCC5)c(C#N)c34)N=C(C)N2)c1
.,-2,N#Cc1ccccc1S(=O)(=O)N1CCN(c2nc(-c3ccccc3)nc3ccccc23)CC1
0.9,21,C#CCN1C(=O)S/C(=C/c2ccccc2)C1=O
.,3,O=C(COC(=O)C1CC(=O)N(CCc2ccccc2)C1)NC1CC1 (configuration not stated)
-6.2,-97,Cn1c(/N=C/c2cc(C(C)(C)C)c(O)c(C(C)(C)C)c2)nc2ccccc21
1.9,9,CC(C)C1NC(=S)NC2=C1CCCC2 (configuration not stated)
.,8,O=C(Nc1sc2c(c1C(=O)O)CCC2)c1ccco1
-0.4,-21,O=C(c1cc2c(s1)CCC2)N1CCc2ccccc2C1
3.9,5,Oc1cccc2c(Cl)ccc(Cl)c12
40,11,Nc1nc2ccc(CCC(=O)O)cc2s1
-2.8,9,Cc1ccc(SCC(=O)NC(C)(C)C)cc1
.,6,CC(=O)N(C)CC(=O)Nc1cccc2ccccc12
.,11,Nc1nnc(N2CCCCC2)s1
4.4,.,COc1ccccc1Cn1[nH]nnc1=S
.,-10,COCCN=c1scc(-c2ccc(C)c(C)c2)n1/N=C(\C)c1ccc(-n2ccnc2)cc1
-0.3,11,CN(C)C(=O)CSc1nnc(N)s1
-0.3,.,COC(OC)c1ccc2c(N)c(C#N)sc2n1
-0.2,11,COc1ccc(S(=O)(=O)N(Cc2nc(-c3ccc(OC)c(OC)c3)no2)C(C)C)cc1
.,9,Cc1ccc(S(=O)(=O)N2CN(CC3CCCO3)c3nc4ccccc4nc32)cc1C (configuration not stated)
6.5,23,CCc1cc2c[n+](C3CCCCC3)sc2s1

MgrA-DNA mod,Sa helicase inh,Structure
.,18,COc1ccc(NC(=O)c2ccc(-c3nc(COc4ccccc4)c(C)o3)cc2)c(OC)c1
.,-1,Cc1ccccc1-c1noc(COC(=O)c2ccc(C#N)cc2)n1
.,16,COc1ccc(NC(=O)c2ccc3c(-n4ccnc4)c4c(nc3c2)CCCC4)cc1OC
-3.4,.,NNC(=O)c1nc(-c2ccccc2)no1
.,-3,O=C1c2ccccc2C(=O)N1Cc1cccc(F)c1
0.0,7,Cc1cc(Br)ccc1NC(=O)C1c2ccccc2C(=O)N2CCc3ccccc3C12 (configuration not stated)
.,8,Cc1cc2c(cc1NC(=O)CCc1ccccc1)n(C)c(=O)c(=O)n2C
.,-18,Cc1cc(C(F)(F)F)n2nc(C(C)C)cc2n1
1.4,8,COc1ccc(C(=O)c2nocc2C(=O)c2cccs2)cc1
.,0,Cc1cc(N2CCN(C)CC2)nc2ccc(NC(=S)N(C)C3CCCCC3)cc12
2.2,.,NS(=O)(=O)c1cc(Cl)cc(Cl)c1
